PINK1 expr mod – PINK1 expression modulation. PINK1 immunofluorescence, high-content cytometry, 24 h. Potency, µM (doses to about 76.6 µM), for the others: at the highest dose activation (PINK1 increase), usual class: activators. hit rate 0.2% among 410,000. AID 624263; active = well fitted activation curve with a large enough effect; inconclusive = small, poorly fitted or top-dose-only effect; inactive = flat fitted curve, though single readings scatter; cell line not stated here;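 note: % of control where 0% means no effect; nearly all actives have a fitted effect of over 65% in size; a mitochondrial uncoupler was the plate control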
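Fluorescence from anti-PINK1 antibody, together with nuclear and cell stains, was scanned on a laser-scanning cytometer. Before staining, stable-line cells were incubated 24 hours with compounds at 5 concentrations; primary antibody 12 h at 10 degrees C.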
The depositor's hits bear a star. Potency is the fitted concentration of half-maximal effect.

| Structure | PINK1 expr mod |
| --- | --- |
| CCOc1ccc(N(C)S(=O)(=O)c2ccc3c(c2)C(C)(C)C(=O)N3C)cc1 | 0.8% |
| CCc1nn2c(=O)cc(COC(=O)C(c3ccccc3)c3ccccc3)nc2s1 | -1.0% |
| CCn1c(=N)c(C(=O)NCc2ccccc2)cc2c(=O)n3cc(C)ccc3nc21 | 0.6% |
| COC(=O)c1ccc(C(=O)Nc2ccc(-c3nc4cc(NC(=O)c5ccc(C(=O)OC)cc5)ccc4o3)cc2)cc1 | 0.0% |
| COc1ccc(C(=O)Nc2ccc3oc(-c4cccnc4)nc3c2)cc1 | 1.0% |
| COc1cc(NC(=O)Cn2c(=O)n(Cc3ccccc3)c(=O)c3oc4ccccc4c32)cc(OC)c1 | -0.8% |
| COc1ccc(Cn2c(CCC(=O)Nc3ccc(C)cc3C)nc3cccnc32)cc1 | 0.0% |
| COc1cc(OC)c(NC(=O)NCc2ccc3c(c2)CCN3C(=O)c2ccccc2)cc1Cl | -0.6% |
| CCc1ccc(N2C(=O)CSC23C(=O)N(Cc2cccc(F)c2)c2ccccc23)cc1 (stereo unspecified) | 3.2% |
| CC(NC(=O)CN1C(=O)COc2ccc(Cl)cc21)c1ccccc1 (stereo unspecified) | 0.3% |
| Cc1ccc(S(=O)(=O)N(C)CCCN(C)c2nc(-c3cccs3)nc3ccccc23)cc1 | 3.7% |
| COc1ccc(N2CC(NC(=O)/C=C\c3ccccc3)CC2=O)cc1 (stereo unspecified) | 0.8% |
| C=C(C)CSc1nc2sc3c(c2c(=O)n1-c1ccccc1)CC(C(C)C)OC3 (stereo unspecified) | -0.5% |
| COC(=O)c1c(NC(=O)c2cc3nc(-c4ccc(OC)cc4)cc(C(F)(F)F)n3n2)sc2c1CCCC2 | 3.2% |
| COc1ccc(NC(=O)CSc2nnc3c(C)cc4ccccc4n23)cc1 | -0.1% |
| Cc1cc(C)c(NC(=O)CSc2nc(=O)[nH]c3c2CCCC3)c(C)c1 | 0.3% |
| COc1cc2nc(N3CCCN(C)CC3)nc(NC3CCNCC3)c2cc1OC | -0.3% |
| S=C(NCCCc1cnc[nH]1)NCCCN(CCc1ccc(Cl)cc1)c1ccc(Br)cn1 | 5.4% |
| CSCCC(NS(=O)(=O)c1ccc2c(c1)oc(=O)n2C)C(=O)N1CCN(c2ccc(F)cc2)CC1 (stereo unspecified) | 1.5% |
| CCOC(=O)N1CCC(NC(=O)c2cnn(-c3ccccc3)c2C2CCN(C(=O)OC(C)(C)C)CC2)CC1 | -1.1% |
| CCCOc1ccc(NC(=O)C(=O)NCCCN2CCOCC2)cc1 | -1.3% |
| CCn1cc(C(=O)N(C)c2cc(C)ccc2C)c2cc(OC)c(OC)cc2c1=O | 1.4% |
| CCc1cccc(N2C(=O)CSC23C(=O)Nc2ccccc23)c1 (stereo unspecified) | 4.8% |
| CN(C)c1ccc(CNC(=O)C2CCN(C(=O)c3ccc(-n4ccc5ccccc54)s3)CC2)cc1 | 1.3% |
| O=C(NCc1cccs1)c1ccc(CSc2nc3ccncc3n2Cc2ccccc2F)cc1 | 1.8% |
| Cc1cccc(CSc2nc3cccnc3n2Cc2ccc(C(=O)NCc3ccco3)cc2)c1 | 2.2% |
| CCc1ccccc1NC(=O)[C@@H](c1ccccc1)N1Cc2ccccc2C1=O | 2.0% |
| CCSc1nc2ccccc2c(OCc2ccc(Cl)cc2)c1C(=O)OC | 4.2% |
| COc1cccc(CNC(=O)CSc2nnc(C)c3c(C)n(-c4ccccc4)nc23)c1 | 2.8% |
| COc1ccc2c(C)c(CC(=O)NCCc3ccc(Cl)cc3)c(=O)oc2c1C | 0.5% |

Some of the entries so far, as labelled records.
> CN(C)c1ccc(CNC(=O)C2CCN(C(=O)c3ccc(-n4ccc5ccccc54)s3)CC2)cc1
  PINK1 expr mod: 1.3%

> O=C(NCc1cccs1)c1ccc(CSc2nc3ccncc3n2Cc2ccccc2F)cc1
  PINK1 expr mod: 1.8%

> Cc1cccc(CSc2nc3cccnc3n2Cc2ccc(C(=O)NCc3ccco3)cc2)c1
  PINK1 expr mod: 2.2%

> CCc1ccccc1NC(=O)[C@@H](c1ccccc1)N1Cc2ccccc2C1=O
  PINK1 expr mod: 2.0%

Continued:
| Structure | PINK1 expr mod |
| --- | --- |
| CCCN(CCC)CCNC(=O)CS(=O)Cc1nc(-c2ccc(OC)c(OC)c2)oc1C (stereo unspecified) | 2.3% |
| COC(=O)c1cc2sccc2n1CC(=O)Nc1ccc(C)cc1C | 0.3% |
| COc1ccccc1-c1nnc(C2CCN(C(=O)c3ccc(Cl)cc3)CC2)o1 | 1.8% |
| Cc1cc(C)cc(NC(=O)COc2cccc3c(=O)n(C)ccc23)c1 | 0.2% |
| CCn1c(C)c(C)c2cc(C(=O)NCCc3cc(OC)c(OC)c(OC)c3)ccc21 | -0.9% |
| CCc1ccc(CNC(=O)C2CCN(C(=O)c3ccc(-n4ccc5ccccc54)s3)CC2)cc1 | 5.6% |
| O=C(Cn1cc(S(=O)(=O)N2CCCC2)c(S(=O)(=O)N2CCCC2)c1)Nc1cccc(F)c1 | 9.0% |
| CCCN1CNc2c(c(=O)[nH]c(=S)n2CCc2cc(Cl)ccc2Cl)C1 | 0.4% |
| Cc1cc(C)c(S(=O)(=O)N2CCN(Cc3nc4ccc(C)cc4o3)CC2)c(C)c1 | 4.7% |
| CCC(=O)Nc1ccccc1-c1nc2ccccc2n(CC(=O)Nc2ccc(C)c(C)c2)c1=O | -0.2% |
| Cc1ccc2nc(-c3cccc(-c4nc5ccc(C)cc5o4)n3)oc2c1 | -0.3% |
| CC(CNC(=O)CCCn1c(=O)c2cccn2c2ccc(F)cc21)c1ccccc1 (stereo unspecified) | -0.5% |
| COc1cc(-c2cc(OC)c3c(C)oc(C)c3c(=O)c2)ccc1OC(=O)c1ccccc1C | 0.4% |
| Cc1ccc2nc(NCc3ccccc3)c3nnnn3c2c1 | 3.2% |
| O=C(Cn1ncc2c3ccccc3n(Cc3cccc(Cl)c3)c2c1=O)N1CCCCCC1 | 3.8% |
| COc1cc(OC)c(NC(=O)c2c(C)oc3ncn(C)c(=O)c23)cc1Cl | 0.6% |
| CC1CCCCN1S(=O)(=O)c1cc2c(=O)nc3ccccn3c2cc1Cl (stereo unspecified) | 1.6% |
| CCOC(=O)c1cccc(NC(=O)N2CCC(CN3CCc4ccccc4C3)CC2)c1 | -0.5% |
| CC1=C(C(=O)N2CCN(c3ccc(Cl)cc3)CC2)C2(CCC(C)CC2)OC1=O (stereo unspecified) | -0.7% |
| Cn1c(=O)n(C)c2cc(N3CCCCC3)c(NC(=O)Nc3ccc(Br)cc3)cc21 | 7.7% |
| CC(C)NC(=O)N1[C@H](c2cccs2)[C@@H](C)C(=O)[C@@H](C)[C@@H]1c1cccs1 | -0.2% |
| Cc1nc2c(-c3ccccc3)c(C)[nH]n2c(=O)c1Cc1ccc(C(C)C)cc1 | 1.8% |
| Cc1ccc(Cn2c(SCc3ccc(C(=O)N4CCCCCC4)cc3)nc3ccncc32)cc1 | 2.6% |
| CCN1CCC(N(Cc2cccc(OC)c2)C(=O)Nc2ccc(C)cc2Cl)CC1 | 0.1% |
| Cc1cc(O)c(C(c2cccc(Cl)c2)N2CCN(c3ccccc3)CC2)c(=O)n1Cc1ccco1 (stereo unspecified) | -0.4% |
| O=C(Nc1ccc(NC(=O)c2cccs2)cc1)c1cccc(Br)c1 | 1.7% |
| CCOc1ccc(NC(=O)c2oc3ccccc3c2NC(=O)C2CCCCC2)cc1 | 2.1% |
| CCCNS(=O)(=O)c1cc(-c2nnc3c4ccccc4c(C)nn23)ccc1OC | -0.7% |
| COc1ccc(C2C(=O)N(C3CCC(C)CC3)CC(=O)N2C2CCCCC2)cc1OC (stereo unspecified) | 2.0% |
| COC(=O)c1ccc(NC(=O)C(C)Sc2nc(=O)cc(N)n2CCc2ccccc2)cc1 (stereo unspecified) | 0.9% |

Of the compounds above, these have two or more sulfur atoms.
| Structure | PINK1 expr mod |
| --- | --- |
| Cc1ccc(S(=O)(=O)N(C)CCCN(C)c2nc(-c3cccs3)nc3ccccc23)cc1 | 3.7% |
| C=C(C)CSc1nc2sc3c(c2c(=O)n1-c1ccccc1)CC(C(C)C)OC3 (stereo unspecified) | -0.5% |
| CSCCC(NS(=O)(=O)c1ccc2c(c1)oc(=O)n2C)C(=O)N1CCN(c2ccc(F)cc2)CC1 (stereo unspecified) | 1.5% |
| O=C(NCc1cccs1)c1ccc(CSc2nc3ccncc3n2Cc2ccccc2F)cc1 | 1.8% |
| O=C(Cn1cc(S(=O)(=O)N2CCCC2)c(S(=O)(=O)N2CCCC2)c1)Nc1cccc(F)c1 | 9.0% |
| CC(C)NC(=O)N1[C@H](c2cccs2)[C@@H](C)C(=O)[C@@H](C)[C@@H]1c1cccs1 | -0.2% |

Continuation:
| Structure | PINK1 expr mod |
| --- | --- |
| CCCCNC(=O)Cn1c(SCc2cccc(F)c2)nc2ccncc21 | 1.1% |
| Cc1cccc(Cn2c(CNS(=O)(=O)c3ccc(C(C)C)cc3)nc3cccnc32)c1 | 1.0% |
| COc1ccc2c(c1)-c1nc(-n3ncc(C(=O)N(C)CC4CCCN(C)C4)c3C3CC3)ncc1CC2 (stereo unspecified) | 0.0% |
| CCOC(=O)CC(NC(=O)c1cc2cc(Cl)ccc2oc1=O)c1ccc(C)cc1 (stereo unspecified) | -1.5% |
| COc1cc(OC)cc(C(=O)NCCc2csc(-c3ccc(C(F)(F)F)cc3)n2)c1 | 1.0% |
| Cc1ccc(S(=O)(=O)c2cn(Cc3ccccc3F)c3cc4c(cc3c2=O)OCO4)cc1 | 2.1% |
| COCCn1c(-c2ccccc2)c(C)n2c3c(=O)n(C)c(=O)n(C)c3nc12 | 0.3% |
| CCOC(=O)c1ccc(NC(=O)c2c(NCc3cc(OC)ccc3OC)sc3c2CCC3)cc1 | 2.3% |
| Cc1cc(C)c(S(=O)(=O)Nc2cc(Cl)c3oc4c(c3c2)C(=O)CCC4)cc1C | 1.0% |
| CN(C)CCNC(=O)c1ccc2c(c1)N(Cc1c(F)cccc1Cl)C(=O)c1ccccc1S2 | 4.1% |
| Cc1ccc(N(CC(=O)Nc2cc(C)ccc2C)S(=O)(=O)c2c(C)noc2C)cc1 | 2.7% |
| CCCc1nc2sc3c(N4CCCCC4)ncnc3c2c2c1CCCC2 | -0.2% |
| CCCCc1nn2c(=O)cc(COC(=O)c3ccccc3NC(=O)c3ccccc3OC)nc2s1 | -1.8% |
| CCC(C)NC(=O)Cn1ccc2cc(S(=O)(=O)N3CCCCC3)ccc21 (stereo unspecified) | 2.3% |
| CC1CCCCN1c1nnc(NC(=O)Nc2ccccc2F)s1 (stereo unspecified) | -1.3% |
| CC1=C(C(=O)NCc2ccccc2F)C2(CCCCC2)OC1=O | 0.0% |
| CCn1c(-c2ccccc2F)nc2cc(C(=O)N3CCNC(=O)C3CC(=O)OC)cc(NC(C)=O)c21 (stereo unspecified) | -0.9% |
| Cn1nnnc1Sc1ncnc2scc(-c3ccc(Br)cc3)c12 | -0.8% |
| Cc1cnc(SCC2CCCO2)nc1C1CCCN(C(=O)C2=NNC(=O)CC2)C1 (stereo unspecified) | -0.2% |
| Cc1oc(-c2ccccc2NC(=O)C2CCCO2)nc1CNC(=O)c1cc(F)c(F)cc1F (stereo unspecified) | 1.5% |
| CCOC(=O)c1[nH]c(C)c(CCC(=O)NCc2ccc(OCC)cc2)c1C | -0.7% |
| CCN(Cc1ccccc1)S(=O)(=O)c1ccc2c(c1)CCCN2C(C)=O | -0.5% |
| O=C(CSc1nnc(-c2cccs2)o1)Oc1ccc(Cl)cc1 | 0.3% |
| CCOc1ccccc1CNC(=O)c1ccc(N2Cc3ccccc3Oc3ncccc32)s1 | 3.9% |
| CCOc1ccc(NC(=O)Cn2c(=O)n(-c3cccc(OC)c3)c(=O)c3c4c(sc32)CCCC4)cc1 | 1.7% |
| O=C(NCCc1ccccn1)c1cnn(-c2ncc3c(n2)-c2ccccc2CC3)c1C1CC1 | -0.6% |
| Cc1cccc(N(C)C(=O)CCNS(=O)(=O)c2ccc3c(c2)CCN3C(=O)C2CC2)c1 | -3.9% |
| Cc1cccc(CCNC(=O)c2ccc(CSCc3cccc(Cl)c3)o2)c1 | 2.2% |
| C=CCNc1oc(-c2cccc(F)c2)nc1C#N | 0.8% |
| Cc1c(Cl)cccc1NC(=O)N1CCOc2ccccc21 | 1.5% |
| CCCCCSc1nnc2c(n1)OC(c1ccc(C)s1)N(C(C)=O)c1ccccc1-2 (stereo unspecified) | 8.5% |
| COc1ccc(OC)c(NC(=O)CCc2c(C)nc3c(c(C)nn3C(C)(C)C)c2C)c1 | -2.1% |
| COc1ccccc1CNC(=O)C(=O)NCC(c1ccco1)S(=O)(=O)c1cccs1 (stereo unspecified) | 0.3% |
| O=C(Cn1c(=O)n(-c2ccccc2Cl)c(=O)c2sc3ccccc3c21)N1CCCC1 | 1.6% |
| Fc1ccc(C2=CC(c3ccc(F)cc3)n3c(nc4ccccc43)N2)cc1 (stereo unspecified) | 2.1% |
| O=S1(=O)c2ccccc2N(Cc2cccc(Cl)c2)c2ccccc21 | 0.7% |
| O=C(O)c1ccc(-c2noc(-c3ccccc3Cl)n2)cc1 | 0.6% |
| CCOC(=O)c1cc(-c2ccc(C)cc2)n(CC(=O)Nc2cc(C)ccc2C)c1C | 0.6% |
| COc1ccc(N2CCN(C(=O)C3CCN(Cc4nc(-c5ccc(Cl)cc5)oc4C)CC3)CC2)cc1 | 1.8% |
| Cc1ccn2c(=O)cc(COc3ccc(NC(=O)COc4ccc(C)c(C)c4)cc3)nc2c1 | 0.9% |
| Cc1c(C(=O)N2CCC(C)CC2)c(S(=O)(=O)N(Cc2ccccc2)C(C)(C)C)c(C)n1C | 8.3% |
| COc1ccccc1CNC(=O)C(=O)NCC(c1ccco1)S(=O)(=O)c1ccc(C)cc1 (stereo unspecified) | 2.0% |
| COc1cccc(Nc2sc(C(=O)c3ccc4c(c3)OCO4)c(N)c2S(=O)(=O)c2ccccc2)c1 | -1.0% |
| Cc1cnc(SCc2ccccn2)nc1C1CCCN(C(=O)c2ccc(-c3ccccc3F)cc2)C1 (stereo unspecified) | -0.5% |
| CCC(C(=O)O)n1ccc2cc(S(=O)(=O)N3CCCCC3)ccc21 (stereo unspecified) | -0.9% |

Not all compounds are listed; count on the stated rates, not on these rows.
